NS1 function inh: inhibitors of influenza NS1 protein function; S. cerevisiae slowed by influenza A NS1, growth recovery by OD600; AID 2326; actives 0.4% (n = 270,000); Potency, µM (series often up to 46.1 µM), inactives show at the highest dose activity, positive = more growth; active means well fitted rising curve with a large enough effect; inconclusive means small, poorly fitted or top-dose-only effect; inactive means no such curve, though single readings can be large or run the other way; further: nearly all actives have a fitted effect of over 50% in size
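OD600 was taken as the measure of yeast growth restored by compound in an NS1-expressing S. cerevisiae strain. Cells had been washed out of glucose medium and diluted 1:100 into galactose -URA medium, pH 6.0.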
RE007 growth inh: less growth of the S. pombe RE007 Vpr strain | Potency, µM (titrated, usually from 92.2 µM), for inactives: top-dose activity change, negative = less growth | AID 651644 | S. pombe RE007 Vpr strain, BacTiter-Glo ATP luminescence, 24 h; control for the full effect not named in the record | actives 0.21% (n = 360,000); active = well fitted falling curve with a large enough effect; inconclusive = small, poorly fitted or top-dose-only effect; inactive = no such curve, though single readings can be large or run the other way;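 further: on the % scale 0 is the no-effect control and ±100 the full control effect; nearly all actives have a fitted effect of over 50% in size; the assay follows cell death caused by Vpr and the record does not say whether a fall means rescue or toxicity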
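Fission yeast strain RE007, carrying one chromosomally integrated HIV-1 vpr copy, was seeded at OD 0.01 in PMG+AL medium with 23 nL pinned compound. After 24 h at 30 °C and 99% humidity, viability was read by BacTiter-Glo luminescence.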
Cruzain Triton: inhibitors of Trypanosoma cruzi cruzain with detergent | purified cruzain, Z-FR-AMC fluorescence, 0.01% Triton | Potency, µM, without a hit: max response, negative = inhibition, usual class: inhibitors | actives 0.43% (n = 200,000) | AID 1478;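 further: plate controls were neutral wells for no effect and buffer without enzyme for full effect; nearly all actives have a fitted effect of over 40% in size; top concentration of the series not given in the record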
Target sequence (P25779 123-467 limits assumed): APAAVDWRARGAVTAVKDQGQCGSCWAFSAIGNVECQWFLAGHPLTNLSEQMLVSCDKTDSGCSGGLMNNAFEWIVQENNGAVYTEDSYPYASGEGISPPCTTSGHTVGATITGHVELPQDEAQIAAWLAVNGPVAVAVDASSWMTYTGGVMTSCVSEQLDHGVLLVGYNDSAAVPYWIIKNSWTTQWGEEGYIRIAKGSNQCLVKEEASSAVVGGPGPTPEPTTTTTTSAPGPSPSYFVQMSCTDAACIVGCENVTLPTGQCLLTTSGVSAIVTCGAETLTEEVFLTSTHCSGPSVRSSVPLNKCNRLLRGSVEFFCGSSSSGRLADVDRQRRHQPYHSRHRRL
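Purified cruzain (1.5 nM final) was preincubated with compounds for 15 min at room temperature in 100 mM sodium acetate pH 5.5, 5 mM DTT, 0.01% Triton X-100. Reaction started with 2 uM Z-FR-AMC; AMC fluorescence change over 60 s gave activity.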
SARS PLpro yeast: inhibitors of SARS-CoV papain-like protease in yeast. S. cerevisiae expressing SARS-CoV PLpro, growth rescue; control for the full effect not named in the record. Potency, µM (series often up to 32.9 µM), for inactives: top-dose activity, positive = growth rescue. actives 0.19% (n = 330,000). AID 485353; active means well fitted rising curve with a large enough effect; inconclusive means small, poorly fitted or top-dose-only effect; inactive means no such curve, though single readings can be large or run the other way; further: 0% is about no effect; nearly all actives have a fitted effect of over 55% in size; growth read by luminescence after 48 h
MARV entry inh: blocks Marburg virus binding to or entry into cells | Marburg virus pseudotyped entry inhibition, cell reporter; control for the full effect not named in the record; about a third of the inactives were read at about 46 µM | Potency, µM (doses to about 37.8 µM), for inactives: at the top dose activity change, negative = inhibition, usual class: inhibitors | actives 1.8% (n = 300,000) | AID 540276; active = well fitted inhibition curve with a large enough effect; inconclusive = small, poorly fitted or top-dose-only effect, or effect the other way; inactive = flat fitted curve, though single readings scatter; tested in HEK293 cells; about a fifth of its hits are not listed in these tables; further: on the % scale 0 is the no-effect control and ±100 the full control effect; luciferase read-out
Cruzain inh noDet: inhibitors of Trypanosoma cruzi cruzain without detergent | purified cruzain, Z-FR-AMC fluorescence, no detergent | P25779 | actives 2.3% (n = 200,000) | Potency, µM, without a hit: max response, negative = inhibition, usual class: inhibitors;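 further: plate controls were enzyme without inhibitor for no effect and buffer without enzyme for full effect; nearly all actives have a fitted effect of over 40% in size; top concentration of the series not given in the record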
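Purified cruzain at 1.5 nM, pre-incubated 15 min with compound at room temperature in 100 mM sodium acetate pH 5.5, 5 mM DTT, 0.00005% Triton X-100. Reaction started with 2 uM Z-FR-AMC; AMC fluorescence increase over 60 s gives rate.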
Lassa entry inh: Lassa virus entry inhibition; Lassa virus pseudotype entry inhibition, cell reporter; control for the full effect not named in the record; Potency, µM (doses to about 37.9 µM), for the others: at the highest dose activity change, negative = inhibition, most hits filed as inhibitors; actives 1.2% (n = 300,000); active means well fitted inhibition curve with a large enough effect; inconclusive means small, poorly fitted or top-dose-only effect, or effect the other way; inactive means flat fitted curve, though single readings scatter; tested in HEK293 cells; further: on the % scale 0 is the no-effect control and ±100 the full control effect; nearly all actives have a fitted effect of over 50% in size; luciferase read-out
2A StopGo: FMDV 2A StopGo reporter, luciferase signal; actives 1.2% (n = 410,000); human cells with a luciferase reporter of 2A StopGo recoding; control for the full effect not named in the record; Potency, µM (series often up to 57.9 µM), for inactives: at the top dose signal change, negative = less light; active = well fitted falling curve with a large enough effect; inconclusive = small, poorly fitted or top-dose-only effect; inactive = no such curve, though single readings can be large or run the other way; tested in HEK293T cells; further: on the % scale 0 is the no-effect control and ±100 the full control effect; nearly all actives have a fitted effect of over 45% in size; luciferase light after 4 h
Active calls of the source: *; ? = inconclusive; / = not tested or not shown; & = joins results of further samples; [ ] = remark or other dose. Unless noted, the call rests on the fitted dose curve; in most records, active means well fitted curve in the direction sought with a large enough effect; inconclusive means small, poorly fitted or top-dose-only effect, or another doubt; inactive means no such curve, though single readings can be large; an effect the other way counts as inactive or inconclusive. Potency means the concentration at half of the fitted maximal effect.

Below each SMILES: NS1 function inh | RE007 growth inh | Cruzain Triton | SARS PLpro yeast | MARV entry inh | Cruzain inh noDet | Lassa entry inh | 2A StopGo
> Cc1ccc(S(=O)(=O)N2CC=C(c3c(C)n(C)c4ccccc34)CC2)cc1
→ 13% | -1% | -5.7% | 20% | -12% | ? | -9% | 0%
> Cc1c(F)cccc1NS(=O)(=O)c1ccc2c(c1)n(C)c(=O)c(=O)n2C
→ -19% | -2% | / | -2% | 14% | / | 18% | 12%
> O=c1cnnc(Nc2ccccc2)[nH]1
→ / | 5% | / | 6% | ? | / | 17%[46.1 µM] | -15%
> CC(OC(=O)CN1C(=O)NC2(CCCC2)C1=O)C(=O)Nc1cccc(Cl)c1 (stereo not drawn)
→ 8% | -23% | / | 3% | -2% | / | 2% | -8%
> CCOC(=O)c1ccc(NC(=O)C2COc3ccccc3O2)cc1 (stereo not drawn)
→ -51% | -3% | / | -9% | 3% | / | -5% | 15%
> CC(C)N(C(=O)Cn1c(SCC(=O)N2CCN(c3ccccc3)CC2)nc2ccccc21)C(C)C
→ 3% | 16% | 5.1% | -1% | 1% | -4% | 3% | /
> COc1ccc(-c2cc3c(nn2)-c2ccccc2C3=O)cc1
→ / | ? | / | -2% | ? | / | ? | 10µM*
> O=C(Nc1ccc(Cl)cc1)C1=Cc2cc(Cl)ccc2OC1
→ -3% | 6% | -3.0% | 2% | 1% | -7% | 8% | ?
> O=C(Nc1ccc(Br)cc1C(=O)O)c1ccc2c(c1)C(=O)N(Cc1ccccc1)C2=O
→ -2% | 3% | / | -4% | 0%&0% | / | -6% | -14%
> Fc1ccccc1N1CCN(c2ncnc3nc[nH]c23)CC1
→ 0% | 1% | / | 1% | -25%[46.1 µM] | / | 13%[46.1 µM] | -21%
> CCc1cccc(C)c1NC(=O)C(c1ccc(O)cc1)N1CCC1=O (stereo not drawn)
→ -9% | -12% | 5.1% | 9% | 5% | 7% | 0% | -19%
> Cc1ccc(CS(=O)Cc2ccc(C(=O)NCc3ccc(OC(C)C)cc3)o2)cc1 (stereo not drawn)
→ 9% | -7% | / | / | -24%[46.1 µM] | / | ? | -11%
> CC(=O)NC1C(Oc2cccc(C)c2)OC2COC(c3ccco3)OC2C1O (stereo not drawn)
→ 7% | -2% | 0.9% | 3% | 7% | 7% | 14% | -9%
> Cc1nn(CC(=O)Nc2cccc(C(F)(F)F)c2)c(=O)c2nn(-c3ccccc3)c(C)c12
→ / | / | -8.2% | / | / | 6% | -5%[46.1 µM] | -5%
> CC(=O)N(C1CC(C)C(C#N)(C#N)C1(C#N)C#N)N(C)C (stereo not drawn)
→ 4% | -15% | / | 0% | ? | / | -6% | ?
> CCc1nc(Nc2ccccc2)c2oc3ccccc3c2n1
→ -61% | -3%[3.69 µM] | -16% | -10% | -21% | -5% | -1% | ?
> CCN(CC)CCCNC(=O)CNC(=S)N(CCCN1CCOCC1)Cc1cccs1
→ / | 2% | / | 0% | -12%[46.1 µM] | / | -3% | 11%
> N#C/C(=C(/O)COC(=O)CCc1ccc(S(=O)(=O)N2CCOCC2)cc1)c1nc2ccccc2[nH]1
→ 19% | -3% | -3.4% | -10% | -13% | 3% | -10% | -24%
> C/C(=N\NC(=O)c1ccc(N/N=C(\C)c2ccncc2)cc1)c1ccncc1
→ / | -8% | / | 2% | 1µM* | / | -3%[46.1 µM] | -10%
> Cc1cccc(NC(=O)C2CC(=O)OC23CCCC3)c1 (stereo not drawn)
→ 6% | 19% | -1.8% | 26% | 13%[46.1 µM] | -6% | 6% | -18%
> Nc1ncnc(Nc2cc(Cl)cc(Cl)c2)c1[N+](=O)[O-]
→ -2% | 24% | 0.3% | -18% | 6% | ? | 12% | -9%
> Cc1ccc(C(=O)Cn2ncsc2=N)cc1
→ -37% | -6% | ? | 2% | 3% | -22% | 20% | 90%[activator]
> COc1cc2c(cc1OC)-c1cc(NC3CC3)nc(=O)n1CC2
→ 2% | 1% | -23% | -2% | -3% | -20% | -2% | 8%
> CNCC(O)Cn1c(C(F)(F)F)nc2ccccc21 (stereo not drawn)
→ 19% | 9% | -2.8% | 3% | 19% | -1% | -3% | 11%
> CN(Cc1ccccc1)Cc1nc2c([nH]1)c(=O)[nH]c(=O)n2C
→ 7% | -15% | 3.3% | 1% | 12% | -3% | 29% | 0%
> CN(Cc1nc(-c2ccccn2)no1)S(=O)(=O)c1ccc(Cl)cc1
→ -29% | -7% | 2.9% | -4% | 5% | 1% | 13% | 4%
> Cc1nnc(NCc2ccccc2)c2ccccc12
→ 26% | -5% | / | 6% | -41% | / | ? | -12%
> Cc1ccccc1-c1nnc(C2CCN(S(=O)(=O)c3ccc(Cl)cc3)CC2)o1
→ / | / | -2.9% | / | 15%[46.1 µM] | -6% | 21%[46.1 µM] | -18%
> CC(=O)N(c1cccc(C)c1)C1SC(=O)N(c2ccccc2)C1=O (stereo not drawn)
→ -6% | 4% | 1.5% | ? | ? | -2% | -5% | -11%
> CNc1nc(C)c(C#N)cc1C(C)=O
→ 6% | 4% | 0.4% | 2% | -23% | 8% | -11% | -4%
> CCc1ccc(CNC(=O)Cn2nc(-c3ccc(Cl)cc3)ccc2=O)cc1
→ / | / | -0.7% | / | / | ? | -5%[46.1 µM] | 0%
> CCOC(=O)c1c(C)[nH]c(C)c1S(=O)(=O)N1CCOCC1
→ 5% | 1% | / | -2% | / | / | / | 1%
> Cc1ccn2c(=O)c(NC(=O)c3cccc4ccccc34)c(C)nc2c1
→ / | -20% | / | -1% | 10% | / | -14% | -16%
> CC(OC(=O)c1ccc(O)cc1)C(=O)Nc1cc(C(F)(F)F)ccc1Cl (stereo not drawn)
→ 0% | 6% | / | -3% | ? | / | ? | -24%
> CC(=O)c1cccc(N(CC(=O)NCCc2ccccc2)C(=O)c2csnn2)c1
→ 11% | -3% | / | 11% | 10%[46.1 µM] | / | 10% | -7%
> O=C(Nc1cccc(S(=O)(=O)N2CCOCC2)c1)c1c2c(nc3ccccc13)CCC2
→ 4µM* | 10% | -14% | -11% | 32% | ? | 3% | -9%
> COc1ccc(NS(=O)(=O)c2cccc(C(=O)N/N=C/c3cccs3)c2)cc1
→ 23% | -6% | 3.8% | 9% | 0% | -3% | -1% | 8%
> CC(=O)c1cc(C(=O)Nc2ccc(C(=O)O)cc2)oc1C
→ 3% | -7% | -2.4% | -5% | ? | -7% | 4% | -1%
> Cc1ccc(S(=O)(=O)N2CCN(c3ccccn3)CC2)cc1
→ 6% | 12% | / | 1% | ? | / | 17%[46.1 µM] | -12%
> CCN1CC(CN(C)Cc2nc(-c3ccc(C(F)(F)F)cc3)no2)CC1=O (stereo not drawn)
→ -1% | 6% | / | 0% | / | / | / | ?
> COc1cc(OC)cc(-n2nnnc2SCC(=O)Nc2ccc(C(C)=O)cc2)c1
→ 6% | -12% | 6.9% | 5% | 11% | 21% | 16% | 17%
> COc1ccc(NC(=O)Cn2nc(Cc3cccnc3)c3ccccc3c2=O)cc1OC
→ -3% | 12% | -3.1% | 1% | 2% | -4% | / | -4%
> COc1cc2c(-c3ccccc3C)nc3c(c(C)nn3-c3ccccc3)c2cc1OC
→ / | / | -1.8% | / | / | -9% | 7%[46.1 µM] | -21%
> COc1ccccc1Nc1nc(-c2c(C)[nH]c3ccccc23)cs1
→ ? | 6% | -5.1% | 6% | 3% | 25µM* | 12% | 32%[activator]
> COc1ccccc1[N+](=O)[O-]
→ / | -9% | -0.7% | 3% | / | -4% | / | -15%
> O=C(CSCc1ccc([N+](=O)[O-])cc1)NC1CCCCCC1
→ -2% | -5% | / | 0% | -17%[46.1 µM] | / | 14%[46.1 µM] | -4%
> COc1ccc(CNC(=O)[C@H](CCSC)NC(=O)N2CCn3c2nc2ccccc23)cc1
→ -23% | 17% | / | 5% | / | / | / | -10%
> CC(=O)c1cccc(NC(=O)Cn2c(=O)oc3cc(S(=O)(=O)N4CCCC4)ccc32)c1
→ 6% | 5% | -8.0% | -2% | 22%&20%[46.1 µM] | -6% | -13% | ?
> COC(=O)c1ccc(N2CCN(C)CC2)c(NC(=O)c2ccc(Br)o2)c1
→ -2% | -7% | / | 6% | / | / | / | 0%
> Cc1cc(C)c2cc(CN(Cc3ccco3)C(=S)NCC3CCCO3)c(=O)[nH]c2c1 (stereo not drawn)
→ 0% | -9% | / | 1% | / | / | / | -8%
> CCCC[n+]1c(-c2ccc(Cl)cc2Cl)csc1Nc1ccccc1
→ -27% | -6% | -0.5% | -71% | 1% | -2% | 13% | -29%
> Nn1c(SCc2ccccc2)nnc1-c1ccco1
→ -21% | 5% | -1.5% | 0% | / | 2% | / | 16%
> CCOC(=O)C1=C(C)N(CC)C(=S)NC1c1ccc(Cl)cc1 (stereo not drawn)
→ 3% | -17% | -15% | 13% | -11% | -20% | 1% | ?
> NC(=O)CC(NC(=O)Cc1ccc(Br)cc1)c1ccc(NC2CCCC2)c([N+](=O)[O-])c1 (stereo not drawn)
→ -3% | 9% | / | 0% | / | / | / | -16%
> COc1ccc(NC(=O)c2cccc(S(=O)(=O)N3CCOCC3)c2)cc1
→ 1% | 16% | / | 1% | -9%[46.1 µM] | / | / | 16%
> COc1cc(OC)cc(OC(=O)C2CCN(S(=O)(=O)c3ccc(OC)c(OC)c3)CC2)c1
→ / | -1% | / | / | -2% | / | 9% | -4%
> CCOC(=O)c1c(-c2ccc(C)o2)csc1NC(=O)CSc1nnnn1-c1ccccc1
→ ? | 10% | -5.4% | -4% | ? | -13% | -26% | /
> O=c1cc(-c2ccco2)oc2c1ccc1ccccc12
→ -7% | -35% | 1.2% | -5% | 9% | -2% | ? | -15%
> CCOC(=O)c1ccc(N/C=C/C(=O)c2ccc(OC)c(OC)c2)cc1
→ -5% | -13% | -1.0% | -9% | -1% | ? | -6% | -16%
> O=C(O)CCCCCCCCCCC1CCC(O)C1O (stereo not drawn)
→ / | 0% | / | / | ? | / | -9%[46.1 µM] | ?
> COc1ccc(-c2nc3cc(C)ccn3c2NCC2CCCO2)cc1OC (stereo not drawn)
→ / | -11% | / | / | 3% | / | 26% | -7%
> COc1ccccc1NC(=O)c1c(NC(=O)CCC(=O)O)sc2c1CCCCC2
→ 12% | 3% | / | 1% | / | / | / | -14%
